Arbovirus inh – arbovirus infection inhibition. arbovirus infection cell-based antiviral screen. inhibition, % at 10 µM. hit rate 0.37% among 200,000;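 active = inhibition from about 30%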;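 note: bluetongue infection of BSR cells; cell survival read as ATP light after 72 h; 0% = infected wells without compound and 100% = uninfected wells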
Mtb growth – M. tuberculosis H37Rv growth inhibitors, H37Rv strain (AID 1626) | inhibition, % at 10 µM; hits with a dose series show IC50 in µM | hit rate 0.95% among 220,000 | M. tuberculosis H37Rv growth inhibition; higher % means a stronger effect;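 active = confirmed in a dose series; inconclusive = inhibition above 80% but not taken into the dose series; inactive = below 80% or under 30% at every dose of the series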;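 note: bacteria incubated seven days before Alamar blue readout; 0% = bacteria only wells and 100% = bacteria with antibiotic wells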
YopH PTP inh – YopH (Yersinia) phosphatase inhibition. fluorescence Ex485/Em525. inhibition, %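 (about 10 µM by stock and volumes)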. hit rate 0.16% among 140,000. AID 898;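 active = inhibition of 50% or more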;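 note: controls were vehicle for no effect and minimum signal wells for full effect; inactives centre near -20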
Mtb betalactam – beta-lactam sensitization of Mtb H37Rv; hit rate 0.27% among 330,000; inhibition, % at 25 µM; M. tuberculosis H37Rv growth with meropenem, percent inhibition; hits of this screen are not shown here;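 active = about 74% or more and at least 40 points above the plate without the antibiotic, then above 30% in a dose series; inconclusive = first-round hits that could not be retested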;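 note: growth measured after seven days incubation then overnight dye step; 0% = bacteria only wells and 100% = bacteria with antibiotic; twin plates without the antibiotic show which effects depend on it; some results filed as inactive read as strong as hits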
RecA splice inh – inhibitors of M. tuberculosis RecA intein splicing | P9WHJ3 | cell-free RecA intein splicing, fluorescence | inhibition, %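 (about 9 µM by stock and volumes)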 | hit rate 0.75% among 290,000; in the data active = inhibition above about 30%; inconclusive = no clear call, values can overlap the other calls;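 note: 0% = vehicle wells and 100% = reference inhibitor control wells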
Target sequence (P9WHJ3 whole entry, looked up, canonical isoform): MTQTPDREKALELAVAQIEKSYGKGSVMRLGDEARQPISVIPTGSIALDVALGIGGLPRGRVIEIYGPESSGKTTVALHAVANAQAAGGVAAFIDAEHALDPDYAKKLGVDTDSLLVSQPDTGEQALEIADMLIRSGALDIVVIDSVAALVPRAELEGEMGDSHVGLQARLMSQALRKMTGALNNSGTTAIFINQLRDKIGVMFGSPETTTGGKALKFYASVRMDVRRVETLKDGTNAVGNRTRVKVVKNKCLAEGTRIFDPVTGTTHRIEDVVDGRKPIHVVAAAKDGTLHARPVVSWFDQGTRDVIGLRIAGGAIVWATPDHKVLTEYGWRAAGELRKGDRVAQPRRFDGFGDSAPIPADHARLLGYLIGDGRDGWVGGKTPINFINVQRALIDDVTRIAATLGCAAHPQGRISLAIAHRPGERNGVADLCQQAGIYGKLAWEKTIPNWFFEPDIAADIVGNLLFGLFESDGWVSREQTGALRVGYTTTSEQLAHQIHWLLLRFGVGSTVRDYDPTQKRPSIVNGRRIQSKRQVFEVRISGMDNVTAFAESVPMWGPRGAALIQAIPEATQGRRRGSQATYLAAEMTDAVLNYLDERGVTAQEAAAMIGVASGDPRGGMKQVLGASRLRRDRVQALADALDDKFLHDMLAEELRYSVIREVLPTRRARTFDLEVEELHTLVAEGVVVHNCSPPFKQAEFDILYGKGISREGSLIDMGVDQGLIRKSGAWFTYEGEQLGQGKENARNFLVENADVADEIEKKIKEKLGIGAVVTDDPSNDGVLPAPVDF
An asterisk follows results filed as active; ? = inconclusive; nt = no result given. Some of the compounds tested; the hit share may differ from the screen's.

SMILES	Arbovirus inh	Mtb growth	YopH PTP inh	Mtb betalactam	RecA splice inh
S=C(Nc1ccc(Br)cc1)N1CCn2cccc2C1c1cccnc1 (stereo not given)	19.9	-6.4%	nt	nt	3.6
CC(C)c1ccc(/C=C(/C#N)c2nnc(NC(=O)c3ccccc3)s2)cc1	-5.6	-0.6%	-13.7	?	-10.0
COc1ccc(N2C(=O)CC(NNc3nc4ccccc4s3)C2=O)cc1 (stereo not given)	nt	-1.8%	nt	-6.3	nt
O=C(Nc1ccc(F)c([N+](=O)[O-])c1)C(=O)c1c(O)[nH]c2ccccc12	15.9	-7.7%	nt	-4.9	8.4
Cc1ccc2[nH]c(=O)c(CN(Cc3ccco3)C(=O)N3CCOCC3)cc2c1	1.2	-5.4%	nt	-4.4	-0.6
CCOc1ccc2nc(N(CCN(C)C)C(=O)c3ccc4ccccc4c3)sc2c1	nt	nt	nt	-2.7	6.1
CC(=O)c1ccc(N2CCCCC2)c(F)c1	-0.9	-4.2%	nt	-3.5	-4.2
O=C(Nc1ccc(S(=O)(=O)N2CCOCC2)cc1)c1ccc(Cl)cc1Cl	nt	nt	nt	-7.3	0.8
CCNC(=O)c1cc(Cl)ccc1OC	0.9	-6.1%	-23.1	-4.0	-0.5
CN(C)S(=O)(=O)c1cccc(NC(=O)c2ccc(OC(F)(F)F)cc2)c1	6.4	-4.4%	-21.2	7.3	0.3
CCC(CC)C(=O)Nc1cccc(C(=O)NC(C)(C)C)c1	0.5	-1.7%	nt	-3.2	-2.1
C=CCNC(=O)CSc1nc2ccccc2c(=O)n1CCc1ccc(OC)c(OC)c1	nt	nt	nt	3.0	-0.3
CCOC(=O)c1cnc2c(-c3ccc(F)cc3)cnn2c1C(F)(F)F	62.0*	?	nt	nt	nt
COc1ccc(CCNC(=O)C2CCN(Cc3nc(-c4ccccc4C)oc3C)CC2)cc1OC	-11.2	-1.1%	-24.2	0.0	-0.1
N/C(=N\OC(=O)CCC1CCCCC1)c1ccccn1	3.0	0.0%	-11.0	13.9	-0.4
CCC(c1nnc(SCc2nc3ccccc3s2)n1Cc1ccccc1)N(C)C (stereo not given)	-12.7	7.2%	-31.6	-0.4	4.6
O/N=C/c1ccc2ccccc2c1	-13.0	>100µM*	nt	-14.0	-1.9
O=c1c2ccccc2nnn1Cc1ccccc1Cl	-3.3	-5.0%	nt	6.2	0.7
CCCn1ncc(C(=O)NC2CCCN(Cc3ccc(Cl)cc3)C2)c1C (stereo not given)	nt	nt	nt	4.3	-1.7
COc1ccc(S(=O)(=O)CCC(=O)Nc2c(C)n(C)n(-c3ccccc3)c2=O)cc1	-1.2	6.8%	-32.6	-10.3	nt
CCn1c(-c2ccccc2)csc1=Nc1ccc(S(=O)(=O)O)cc1	6.8	-2.8%	-30.4	-3.6	1.8
CCN(CC)S(=O)(=O)c1ccc(Cl)c(NC(=O)c2cc(Cl)ccc2Cl)c1	1.4	4.8%	-22.2	0.8	0.7
Cc1[nH]c2ccccc2c1C(=O)COC(=O)c1cccc(S(=O)(=O)N2CCCCC2)c1	10.0	6.4%	2.0	-2.9	0.7
O=C(CSc1ncn[nH]1)Nc1ccccc1-c1ccccc1	-3.5	0.8%	1.0	-4.2	-6.4
COC(=O)CNS(=O)(=O)c1ccc(Cc2ccc(S(=O)(=O)NCC(=O)OC)cc2)cc1	5.2	-14.2%	-22.3	1.7	0.7
O=C(Nc1ccc(O)cc1)c1ccc2c(c1)C(=O)N(Cc1cccnc1)C2=O	nt	nt	nt	-3.3	-0.1
COC(=O)c1cc(C(C)=O)n2ccccc12	-9.6	-3.7%	10.9	-0.3	1.5
CCC(=O)c1ccc(OCC(=O)NC2(C#N)CCCCC2)cc1	7.4	-8.2%	nt	12.8	-5.3
COc1cccc(C(=O)NCC(=O)N/N=C/c2cccnc2)c1	nt	nt	nt	-5.8	0.8
Cc1ccc(OCC(=O)N/N=C/c2ccc3c(c2)OCO3)cc1C	-24.6	-3.1%	nt	nt	-1.3
COc1ccc(C2C3=C(CC(C)(C)CC3=O)Nc3cc4c(cc32)OCO4)cc1 (stereo not given)	-0.4	-7.2%	-3.5	-2.9	-24.9
COCCN(C(=O)CSc1nnc(Nc2ccc(C)cc2)s1)c1c(N)n(CC(C)C)c(=O)[nH]c1=O	1.8	3.2%	nt	-14.3	-0.2
CC(=O)Nc1ccc(C(=O)NN2C(=O)NC3(CCCCC3)C2=O)cc1	nt	nt	nt	-8.7	-1.1
Cc1ccc(/C(N)=N/OC(=O)c2cccc(F)c2)cc1	-8.6	4.3%	-21.9	5.5	2.0
O=C(Nc1ccccc1)c1ccc(S(=O)(=O)NCc2ccco2)cc1	-2.7	5.7%	-31.0	41.1	1.1
N/N=C(\c1ccccc1)c1cc(Br)ccc1N	nt	nt	nt	-5.5	1.1
COc1ccc(-n2nc(C(=O)NCC(=O)NC3CCCCC3)c3ccccc3c2=O)c(OC)c1	nt	nt	nt	6.9	0.6
COCCOC(=O)c1sc2nc[nH]c(=O)c2c1C	-3.0	-3.1%	nt	1.3	-1.5
Cc1cc(CN2C(=O)c3ccccc3C2=O)no1	0.2	nt	-33.5	3.6	-3.9
O=C(NCCN1CCOCC1)c1ccc(Cl)nc1	nt	3.2%	nt	-6.0	-1.0
Cc1ccc(NC(=O)C(=O)NCC2CCCN2S(=O)(=O)c2cccs2)cc1 (stereo not given)	nt	nt	nt	-7.2	-0.2
S=c1[nH]nc(Cc2cccc3ccccc23)o1	2.3	-0.1%	-40.8	-3.9	1.9
O=C(NCc1ccccc1)C1=C[C@H](c2ccc(Br)cc2)C[C@H](OCCCCO)O1	nt	2.2%	nt	0.6	9.0
Cc1nonc1NC(=O)CSc1nnnn1-c1ccccc1	nt	nt	nt	-3.0	1.6
O=C(CSc1nc2cc(Cl)ccc2s1)N1CCCc2ccccc21	-7.4	7.8%	-2.0	26.4	nt
CC(C)CC(=O)NCCCN1CCN(CCCNC(=O)CC(C)C)CC1	1.9	-2.0%	-32.4	-19.1	1.2
CC(C)CCP(=O)(O)c1ccccc1	-3.0	1.9%	-15.6	1.8	0.6
C#CC(C)(C)NC(=O)c1sccc1Oc1ccc(F)cc1[N+](=O)[O-]	1.6	6.6%	nt	1.3	-7.2
CCOc1ccc(-n2c(=S)sc3c(=O)[nH]c(SCC(=O)NCC4CCCO4)nc32)cc1 (stereo not given)	4.4	-6.2%	-15.8	-2.8	1.0
CC(C)N1CCc2c(sc(NC(=O)C3CCCCC3)c2C(N)=O)C1	nt	nt	nt	-5.3	-21.6
New compounds follow.
SMILES	Arbovirus inh	Mtb growth	YopH PTP inh	Mtb betalactam	RecA splice inh
Cc1nn2c(SCC(=O)c3cccs3)cc(C(C)(C)C)nc2c1-c1ccccc1	-0.9	-4.7%	-18.6	-5.2	1.4
COc1ccc(CCNS(=O)(=O)c2ccc(-n3cnnn3)c(OC)c2)cc1OC	nt	nt	nt	-0.7	0.3
Cc1[nH]n(-c2ccc(Br)cc2)c(=O)c1/C=N/NC(=O)c1ccccc1	nt	nt	nt	99.7	10.7
Cc1cc(NC(=O)Cc2cc(F)cc(F)c2)no1	nt	nt	nt	0.3	-1.9
COc1ccc(CCNC(=O)COC(=O)c2cc(S(=O)(=O)NCc3ccccc3)ccc2O)cc1OC	nt	-0.8%	nt	-3.0	2.6
CN1C2CCC1CC(NC(=O)CSc1ccc(C(C)(C)C)cc1)C2 (stereo not given)	nt	6.8%	nt	-4.0	-0.2
Cc1cccc(Cn2c(N(C)CCO)nc3c2c(=O)[nH]c(=O)n3C)c1	9.7	-3.7%	-19.0	?	0.0
CN1CCC(OC(=O)COc2ccc(Cl)cc2Cl)CC1	-3.0	-8.8%	nt	-5.2	-2.9
COc1cc(C2C(C#N)=C(N)Oc3n[nH]c(-c4ccccn4)c32)cc(OC)c1OC (stereo not given)	-1.1	-8.6%	-16.3	-3.0	17.2
COC(=O)c1c(N)sc2c1CC(C)(C)OC2	2.4	5.2%	nt	-3.8	-6.0
c1ccc(Sc2ccccn2)cc1	nt	nt	nt	-3.1	3.5
CCOc1ccc(-n2c(SCC(=O)N3CCC(C(=O)O)CC3)nc3ccccc3c2=O)cc1	nt	nt	nt	0.8	1.4
CCc1nnc(NC(=O)CSc2nnc(-c3ccoc3C)n2CC(C)C)s1	-2.1	-5.6%	-36.8	-9.4	1.4
CC(C)(C)c1ccc(OC2=CS(=O)(=O)c3ccccc32)cc1	-2.4	-0.7%	-15.9	20.8	9.2
CC(NC(=O)COc1ccc(/C=N/NS(=O)(=O)c2ccccc2)cc1)c1ccccc1 (stereo not given)	3.1	1.8%	-43.9	15.3	0.3
COc1ccc(CN(CC2CCC(C(=O)O)CC2)C(=S)Nc2cccc(C)c2)cc1 (stereo not given)	10.2	-5.2%	nt	3.7	1.1
Cc1occc1C(=O)N/N=C/C=C/c1ccc(N(C)C)cc1	nt	nt	nt	-2.8	-38.3
CCC(=O)OC1CSc2nc3ccccc3n2C1 (stereo not given)	2.2	11.5%	-37.0	22.9	-0.8
O=C(Nc1ccc2c(c1)OCO2)C1CC(=O)N(c2ccccc2)C1 (stereo not given)	nt	nt	nt	5.9	1.1
CCOc1cccc(-c2c(C(=O)N/N=C/c3cccnc3)nnn2-c2nonc2N)c1	nt	nt	nt	28.7	-1.5

Shown as a markdown table: entries from further up.
| structure | Arbovirus inh | Mtb growth | YopH PTP inh | Mtb betalactam | RecA splice inh |
| --- | --- | --- | --- | --- | --- |
| CC(NC(=O)COc1ccc(/C=N/NS(=O)(=O)c2ccccc2)cc1)c1ccccc1 (stereo not given) | 3.1 | 1.8% | -43.9 | 15.3 | 0.3 |
| COc1ccc(CN(CC2CCC(C(=O)O)CC2)C(=S)Nc2cccc(C)c2)cc1 (stereo not given) | 10.2 | -5.2% | nt | 3.7 | 1.1 |
| Cc1occc1C(=O)N/N=C/C=C/c1ccc(N(C)C)cc1 | nt | nt | nt | -2.8 | -38.3 |
| CCC(=O)OC1CSc2nc3ccccc3n2C1 (stereo not given) | 2.2 | 11.5% | -37.0 | 22.9 | -0.8 |
| O=C(Nc1ccc2c(c1)OCO2)C1CC(=O)N(c2ccccc2)C1 (stereo not given) | nt | nt | nt | 5.9 | 1.1 |

More results follow:
SMILES	Arbovirus inh	Mtb growth	YopH PTP inh	Mtb betalactam	RecA splice inh
Cc1cc(NC(=O)COc2ncnc3sc(C)c(C)c23)no1	1.8	-7.7%	-24.9	-11.7	0.4
O=C(C(=S)N1CCOCC1)c1c[nH]c2ccccc12	-1.1	-7.0%	nt	-0.1	nt
Cn1c(=O)c2c(nc(N3CCN(c4ccccn4)CC3)n2Cc2ccccc2Cl)n(C)c1=O	-1.0	-4.8%	-34.3	-2.4	nt
CCCOP(=O)(c1ccc(N(C)C)cc1)C(O)c1ccccc1OC (stereo not given)	10.4	-4.8%	-27.3	7.7	1.0
CC1CC(NC(=O)c2ncn[nH]2)CC(C)(C)C1 (stereo not given)	-3.2	-0.5%	-20.2	0.9	-2.1
O=C(NC1CCSc2ccccc21)c1cccc(Br)c1 (stereo not given)	nt	nt	nt	8.4	-0.2
CC(C(=O)N1CCCCC1)n1sc2ccccc2c1=O (stereo not given)	11.3	-8.5%	-12.8	-8.4	3.1
Cc1cc(=O)n2nc(-c3ccccc3)sc2c1C#N	2.7	-14.4%	-10.0	-0.9	-0.7
C=CCn1c(SCc2cc(C(C)=O)ccc2OCC)nc2ccccc2c1=O	-6.3	3.6%	4.7	2.8	1.0
Cc1ccc(NC(=O)NNC(=O)CN2C(=O)COc3ccccc32)cc1	nt	nt	nt	-4.2	7.2
CN(C)S(=O)(=O)c1ccc(/C(O)=C2/C(=O)C(=O)N(Cc3cccnc3)C2c2ccco2)cc1 (stereo not given)	9.4	-12.2%	-29.3	-3.8	4.3
O=C(NCc1ccco1)/C(=C\c1cccc([N+](=O)[O-])c1)NC(=O)c1ccco1	nt	nt	nt	-2.6	-1.7
O=C(NCCc1ccc(F)cc1)Nc1ccc([N+](=O)[O-])cc1	nt	nt	nt	7.4	2.1
CCOC(=O)C(NCCc1ccccc1)(NC(C)=O)C(F)(F)F (stereo not given)	6.1	6.7%	-21.6	-3.0	-2.4
Cc1ccc(S(=O)(=O)Oc2ccccc2/C=N/N=C(N)N)cc1	-5.6	10.8%	nt	3.1	-0.3
COC(=O)N1C(=O)[C@](c2ccccc2)(C(C)C)N1C(=O)OC	nt	nt	nt	-3.1	-0.7
Cc1noc(C)c1COC(=O)CCCNC(=O)c1ccc(Cl)cc1	3.4	6.0%	nt	2.3	0.9
COC(=O)CSc1nnc(-c2ccncc2)n1N	6.7	-5.9%	-37.2	-13.6	-0.3
Cn1c(CCNC(=O)c2ccco2)nc2cc([N+](=O)[O-])ccc21	nt	nt	nt	-8.5	0.2
Cc1ccc(NC(=S)NCc2ccccc2)cc1S(=O)(=O)N1CCCCC1	-23.7	-3.1%	nt	-1.1	4.5
CCOC(=O)N1CCN(C(=O)CSc2nnc(CNC(=O)c3c(F)cccc3Cl)o2)CC1	-0.5	-1.8%	-22.6	-1.3	-0.7
CC(=O)Cc1c[nH]c2ccccc12	nt	-2.8%	nt	-5.7	11.9
Cc1ccc(SCCOCCN2CCOCC2)cc1	nt	nt	nt	0.9	-2.4

Screens deposited in PubChem BioAssay by several laboratories.
